Assay outcomes: PubChem BioAssay, National Center for Advancing Translational Sciences (NCATS)
gsp agonist: activates gsp, the McCune-Albright syndrome mutation; gsp mutant cells, cAMP HTRF, 30 min; control for the full effect not named in the record; Potency, µM (doses to about 76.9 µM), for inactives: top-dose activation (cAMP increase), actives largely listed as activators; hit rate 0.13% among 340,000; active = well fitted activation curve with a large enough effect; inconclusive = small, poorly fitted or top-dose-only effect, or another doubt; inactive = no such curve, though single readings can be large or run the other way; cell line not stated here;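 note: phosphodiesterase inhibitor Ro 20-1724 added with compounds to block cAMP breakdown; potency is the fitted concentration of half-maximal effect; nearly all actives have a fitted effect of over 60% in size; about a fifth of the inactives were tested at one dose only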
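Cells stably selected in G418 were plated at 2000/well, grown 16-24 hr, then given compounds in DMSO with the PDE inhibitor […] (300 uM solution added) for 30 min at 37C; cAMP was read by HTRF.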
TRPML1 inh: blocks the human TRPML1 channel; hit rate 0.02% among 390,000; activity change, negative = inhibition, % (concentration not given with the values); TRPML1-inducible cells, Ca2+ dye fluorescence, FDSS; active compounds read low; inhibition of EC80 agonist-evoked calcium signal; Q9GZU1; in the data active means activity change below about -50%; inconclusive means about -30% to -50%; inactive means above about -30%;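 note: stimulus is agonist 54-4 at its EC80 concentration; % is set by controls: 0 for no effect and ±100 for the full control effect; the text of the record puts the active cut at -80%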
Target sequence (Q9GZU1 whole entry, looked up): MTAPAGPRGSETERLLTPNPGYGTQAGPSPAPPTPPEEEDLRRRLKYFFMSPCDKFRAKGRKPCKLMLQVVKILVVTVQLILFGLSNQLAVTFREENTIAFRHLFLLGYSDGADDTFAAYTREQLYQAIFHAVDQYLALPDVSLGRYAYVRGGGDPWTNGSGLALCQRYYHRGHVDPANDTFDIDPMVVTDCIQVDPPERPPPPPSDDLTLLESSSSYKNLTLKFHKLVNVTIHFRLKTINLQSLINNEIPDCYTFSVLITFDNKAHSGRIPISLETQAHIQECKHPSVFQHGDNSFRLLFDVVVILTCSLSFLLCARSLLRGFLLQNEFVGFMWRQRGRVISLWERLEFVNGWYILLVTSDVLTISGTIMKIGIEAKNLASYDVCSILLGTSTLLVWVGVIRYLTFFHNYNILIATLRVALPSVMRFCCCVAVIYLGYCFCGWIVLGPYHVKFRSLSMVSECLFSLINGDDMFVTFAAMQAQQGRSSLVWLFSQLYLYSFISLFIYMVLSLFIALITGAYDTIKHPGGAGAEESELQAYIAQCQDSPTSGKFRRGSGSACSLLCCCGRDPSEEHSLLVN
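Tet-induced TRPML1-DL cells loaded with Ca8 no-wash calcium dye were read kinetically on FDSS. Compound addition was followed by EC80 agonist 54-4 (4 uM final); inhibition was read over 110 s.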
Menin MLL FP FL: menin-MLL binding inhibition, fluorescein peptide; Fluorescence polarization, fluorescein-MLL peptide displacement from menin; FP activity change, % at 61.4 µM; 290,000 tested, under 10 active; AID 1766; inconclusive = falling polarisation curve, or a change in total fluorescence; inactive = total fluorescence flat and polarisation flat or rising; no compound was filed as active; the % refers to the polarisation; negative = inhibition;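 note: % of control where 0% means no effect; inhibitors lower the polarisation; unlabelled MLL peptide was the positive control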
TRPML1 ag: human mucolipin-1 channel agonism. Q9GZU1. TRPML1-expressing cells, Ca2+ dye fluorescence, FDSS; host cell line not named in the record; reference of the full effect not given here. activation, % (concentration not given with the values). hit rate 0.12% among 410,000. AID 624414; in the data active = activation above about 50%; inconclusive = about 30% to 50%; inactive = below about 30%; note: 0% is about no effect; the text of the record puts the active cut at 80%
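Tet-induced TRPML1-DL cells, 1,500 per well, cultured overnight, were loaded with a no-wash Ca2+ dye for 45–90 min. Calcium fluorescence was recorded on the FDSS for 110 s after compound addition, before the EC80 agonist (4 uM 54-4) was added.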
gsp antag: gsp mutant antagonism. gsp-mutant cells, cAMP HTRF, 30 min; control for the full effect not named in the record. Potency, µM (top dose mostly 76.9 µM), for the others: at the highest dose activity change, negative = inhibition, most hits filed as inhibitors. hit rate 0.4% among 340,000. AID 624288; active = falling curve of any shape with a large fitted effect; inconclusive = falling curve, mostly with a smaller effect; inactive = flat or rising curve; cell line not stated here;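 note: intracellular cAMP measured with PDE inhibitor Ro 20-1724 present during compound exposure; potency is the fitted concentration of half-maximal effect; % is set by controls: 0 for no effect and ±100 for the full control effect; nearly all actives have a fitted effect of over 65% in size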
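G418-selected cells were plated in DMEM/10% FBS for 16-24 h at 37C, then treated with compounds plus the PDE inhibitor […] (300 uM solution added) for 30 min at 37C. Intracellular cAMP was measured by HTRF after 30 min lysis at room temperature.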
ClpP mod: qHTS Assay for Activators of ClpP. Potency, µM (top dose mostly 57.5 µM), for inactives: at the top dose activity change, negative = active. purified B. subtilis ClpP, FRET peptide cleavage, 20 min. hit rate 1.9% among 340,000. AID 651965, 2013; active = well fitted falling curve with a large enough effect; inconclusive = small, poorly fitted or top-dose-only effect; inactive = no such curve, though single readings can be large or run the other way; note: potency is the fitted concentration of half-maximal effect; the source files actives as falling curves though it sought activators and does not explain the sign; nearly all actives have a fitted effect of over 65% in size; many hits overshoot -100%
Target sequence (P80244 whole entry, looked up): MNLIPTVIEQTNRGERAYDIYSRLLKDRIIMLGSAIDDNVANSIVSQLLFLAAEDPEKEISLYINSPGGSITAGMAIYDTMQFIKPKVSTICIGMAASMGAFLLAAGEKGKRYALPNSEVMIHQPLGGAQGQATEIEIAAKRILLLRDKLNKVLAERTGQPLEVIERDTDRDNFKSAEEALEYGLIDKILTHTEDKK
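ClpP 10 microg/mL final, pH 8 Tris/KCl buffer with BSA, glycerol, Tween-20; compound pinned in; FRET-FV substrate; RT 20 min; Ex320/Em430; ΔFRET vs ADEP 5.8 microM, DMSO, no enzyme.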
* hit, by the source's call; u = inconclusive; x = not tested or not shown; & = joins results of further samples; [ ] = another dose, or the depositor's remark.

# | mol | gsp agonist | TRPML1 inh | Menin MLL FP FL | TRPML1 ag | gsp antag | ClpP mod
1 | CCOC(=O)N1CCN(C(=O)CSc2nnc(COc3ccc(Cl)cc3)o2)CC1 | -0.8% | 0.2 | -1.6 | 1.6 | -10.8% | 0.3%
2 | Cc1ccc(NC(=O)CNC(=O)c2ccc(Br)o2)nc1 | 17.2% | 12.1 | x | -0.2 | 0.7% | -1.6%
3 | CC(C)c1ccccc1NC(=O)COC(=O)c1cccnc1 | -13.0%[15.4 µM] | -6.3 | 4.0 | -0.6 | 9.0% | x
4 | CC(=O)N/C(=C\c1ccccc1)C(=O)OCC(=O)N(CC(C)C)c1c(N)n(Cc2ccccc2)c(=O)[nH]c1=O | -13.5%[15.4 µM] | -0.4 | x | 4.7 | -1.2% | x
5 | COC(=O)C1CCCN1C(=O)C12CC3CC(CC(C3)C1)C2 (configuration not stated) | 3.5%[15.4 µM] | 9.3 | -6.3 | 0.5 | 6.0% | -0.8%
6 | CCCN(CCC)C(=O)c1ccc2nc(-c3ccc(OC)c(OC)c3)c(-c3ccc(OC)c(OC)c3)nc2c1 | -5.2% | -11.8 | 5.6 | 0.2 | -7.9% | -1.1%
7 | C=CCNC(=O)c1c(C(F)(F)F)nn(C)c1Cl | 19.6% | 2.2 | 0.0 | 0.1 | 3.8% | x
8 | CC(=O)N1CCN=C1SCc1c(F)cccc1Cl | -13.9% | 0.3 | 2.6 | 0.4 | -5.4% | -0.4%
9 | COc1ccc(-c2cnn3c(C)cc(C)nc23)cc1OC | x | -12.8 | x | -0.4 | x | -0.6%
10 | CC(=O)Nc1ccccc1-c1nc2ccccc2n(CC(=O)c2ccc(Br)cc2)c1=O | x | -21.2 | x | 2.4 | x | -5.2%
11 | COc1cc(CCC(=O)Nc2ncc(C)s2)cc(OC)c1OC | u | 15.0 | -4.2 | 0.2 | -5.6% | x
12 | CCOc1ccc(NC(=O)Cc2ccc(-n3c(C)nc4cccnc43)cc2)cc1 | x | 21.7 | x | 0.7 | x | 0.3%
13 | CCOC(=O)CNC(=S)n1ncnc1N | -19.7%[15.4 µM] | 14.3 | -2.4 | -0.8 | 11.7% | x
14 | COc1ccc(-c2nc(N/N=C(\C)c3ccc(O)cc3)c3ccccc3n2)cc1 | -6.9% | x | 10.9 | x | -25.5% | -2.6%
15 | COc1ccccc1S(=O)(=O)NCc1ccc(C(=O)NC(C)c2ccccn2)cc1 (configuration not stated) | 7.3% | 3.1 | x | -0.4 | 8.4% | -5.2%
16 | CC1Cc2nc(SCC(=O)OCc3ccccc3)n(C)c(=O)c2S1 (configuration not stated) | u | -15.5 | -1.7 | 1.0 | -5.8% | -1.0%
17 | CN(C)c1ccc(-c2nnc(SCC3CCCO3)n2C)cc1 (configuration not stated) | u | 13.6 | 4.1 | 0.4 | u | x
18 | COc1cc(/C=C(\C#N)c2ccccn2)ccc1OCc1ccc(Cl)cc1 | 1.5% | 29.4 | 2.5 | 1.4 | -10.1% | -4.3%
19 | CCCNC(=O)N(C)C[C@@H]1Oc2cc(C#C[C@H](C)O)ccc2S(=O)(=O)N([C@H](C)CO)C[C@H]1C | -122.6%[inhibitor] | 12.6 | x | 1.1 | x | -2.2%
20 | CC(=O)NC1=NN(C(C)=O)C(C)(c2ccc(Br)cc2)S1 (configuration not stated) | 1.4% | 42.0 | 1.2 | 1.3 | 2.0% | x
21 | CC(C)C[C@H]1CN([C@@H](Cc2ccc(O)cc2)CN2CCC[C@@H]2CN2C(=S)NC[C@@H]2Cc2ccccc2)C(=S)N1CC1CCCCC1 | x | -4.5 | x | -0.3 | x | 0.2%
22 | COc1ccc(NC(=O)CSc2nnc(C)c3ccccc23)cc1 | 24.1% | 10.5 | x | 0.8 | 12.9% | 0.4%
23 | COC(=O)c1[nH]c2cccc(Cl)c2c1NC(=O)CN1CCN(CCO)CC1 | 0.0% | -2.4 | 5.4 | 2.9 | 11.8% | -12.0%
24 | COc1ccccc1Nc1nccc(N(C)C)c1C#N | -1.7%[15.4 µM] | -6.1 | 4.4 | -0.7 | -2.4% | x

Rewritten with one line to a screen: 6 of the compounds above
#17 CN(C)c1ccc(-c2nnc(SCC3CCCO3)n2C)cc1 (configuration not stated)
#18 COc1cc(/C=C(\C#N)c2ccccn2)ccc1OCc1ccc(Cl)cc1
#19 CCCNC(=O)N(C)C[C@@H]1Oc2cc(C#C[C@H](C)O)ccc2S(=O)(=O)N([C@H](C)CO)C[C@H]1C
#20 CC(=O)NC1=NN(C(C)=O)C(C)(c2ccc(Br)cc2)S1 (configuration not stated)
#21 CC(C)C[C@H]1CN([C@@H](Cc2ccc(O)cc2)CN2CCC[C@@H]2CN2C(=S)NC[C@@H]2Cc2ccccc2)C(=S)N1CC1CCCCC1
#22 COc1ccc(NC(=O)CSc2nnc(C)c3ccccc23)cc1

entry no. | 17 | 18 | 19 | 20 | 21 | 22
gsp agonist | u | 1.5% | -122.6%[inhibitor] | 1.4% | x | 24.1%
TRPML1 inh | 13.6 | 29.4 | 12.6 | 42.0 | -4.5 | 10.5
Menin MLL FP FL | 4.1 | 2.5 | x | 1.2 | x | x
TRPML1 ag | 0.4 | 1.4 | 1.1 | 1.3 | -0.3 | 0.8
gsp antag | u | -10.1% | x | 2.0% | x | 12.9%
ClpP mod | x | -4.3% | -2.2% | x | 0.2% | 0.4%

Further structures:
# | mol | gsp agonist | TRPML1 inh | Menin MLL FP FL | TRPML1 ag | gsp antag | ClpP mod
25 | Cc1onc(-c2ccccc2)c1C(=O)Nc1nnc(COc2ccc(Cl)cc2)s1 | -24.2% | -9.3 | 4.7 | 2.5 | -9.5% | -2.2%
26 | Cc1cc(C)n(-c2ncc3c(n2)N(CCO)CCOC3=O)n1 | 18.2% | -28.9 | -1.7 | 0.8 | 1.9% | -10.9%
27 | Nc1c2c(nc3ccn(-c4ccccc4)c(=O)c13)CCCCC2 | 3.5% | 30.2 | -3.4 | -0.1 | 2.9% | 28.2µM*
28 | CCN(CC)S(=O)(=O)c1cccc(C(=O)N[C@H](C(=O)NC2=NCCS2)C(C)C)c1 | 19.3% | 2.5 | x | -0.6 | 8.4% | x
29 | CCOC(=O)N1CCN(C(=O)c2oc3ccc(S(=O)(=O)N4CCCCC4)cc3c2C)CC1 | -38.5% | -2.1 | -0.2 | 1.5 | -23.5% | -1.0%
30 | CCOC(=O)CSc1nc2ccsc2c(=O)n1C1CCN(C(=O)OCC)CC1 | 13.5% | -19.7 | -0.5 | -0.3 | -32.2% | -2.7%
31 | CCCN1CCc2nc(N3CCN(c4ncccn4)CC3)ncc2C1 | x | 34.3 | x | -0.1 | x | -15.6%
32 | CN1C2CCC1CC(OC(c1ccccc1)c1ccccc1)C2 (configuration not stated) | 3.9% | 2.3 | 0.9&-3.9&-7.7 | 2.7 | 20.2% | -2.9%
33 | COc1ccc(-c2nn(-c3ccccc3)cc2CNCc2cccnc2)c(F)c1 | 0.9%[15.4 µM] | -7.8 | -0.5 | -1.4 | -9.2% | 1.4%
34 | O=C(OCc1ccccc1)c1cc(S(=O)(=O)N2CCCCC2)ccc1N1CCOCC1 | -61.9%[inhibitor] | u | x | 1.6 | -2.7% | -1.4%
35 | COc1ccc(Cl)cc1NC(=O)CN(C)CC(=O)Nc1ccc(C)cc1Br | -9.6%[15.4 µM] | -3.6 | -3.0 | 1.7 | -4.7% | x
36 | CCc1ccc(-c2cc(C)no2)cc1S(=O)(=O)N1CCOc2ccc(C)cc21 | 14.4% | -19.1 | x | -0.3 | -11.4% | -1.8%
37 | CC(C)(C)N(CC(=O)NC1CCCCC1)C(=O)CS(=O)CC(=O)Nc1ccc(F)cc1 (configuration not stated) | -6.0%[15.4 µM] | -2.4 | 3.4 | -1.2 | 5.5% | 0.6%
38 | CCN1C(=O)[C@H]2[C@@H](c3ccc(-c4ccc(C(C)=O)cc4)cc3)N3CCC[C@@]3(C(=O)OC)[C@H]2C1=O | x | -8.3 | x | -0.7 | -11.9% | -2.2%
39 | O=C(Nc1ccccc1)N(Cc1cccc(Cl)c1)c1ccccn1 | x | 44.0 | x | 3.6 | x | 1.5%
40 | CCc1nnc(NC(=O)CN2C(=O)N(C)C3(CCCCC3)C2=O)s1 | -33.0%[inhibitor] | -4.4 | x | 0.6 | 6.9% | 2.1%
41 | O=C(Cc1ccc(NC2=NC3CS(=O)(=O)CC3S2)cc1)N1CCN(c2ccc(F)cc2)CC1 (configuration not stated) | 17.1% | -7.4 | -2.4 | -0.2 | 8.5% | -1.6%
42 | CC(=O)N=C(N)Sc1nc2ccccc2[nH]1 | -0.2% | 11.0 | -0.6 | 0.0 | -1.9% | 0.5%
43 | Cc1cccc(C(=O)N[C@@H]2c3ccccc3C[C@@H]2O)n1 | -8.4% | 21.6 | x | -0.7 | 10.6% | 1.4%
44 | CCOC(=O)CSc1nc2c(sc(=S)n2-c2ccc(OCC)cc2)c(=O)[nH]1 | u | 9.7 | -3.4 | 0.1 | u | 0.7%
45 | CN(C)/C=N/c1nc2nccc(-c3ccc(F)cc3)n2n1 | -2.3%[15.4 µM] | 9.9 | 3.3 | 0.1 | x | x
46 | COC(=O)c1cc(C#N)c(OC)nc1C | -13.5%[15.4 µM] | 0.2 | -2.7 | -0.7 | 2.3% | x
47 | c1ccc(-c2ccccc2OCCCN2CCCC2)cc1 | 11.4%[15.4 µM] | 18.7 | -0.5 | 0.0 | 10.7% | -0.2%
48 | CCOc1ccc(CN2C(=O)c3ccccc3C2=O)cc1C(=O)O | 28.3%[15.4 µM] | 16.0 | 1.3 | -0.8 | -13.7% | x
49 | O=C(COC(=O)c1ccc(Cl)nc1)Nc1ccc2c(c1)OCCO2 | -0.1% | -7.4 | x | -0.9 | 0.7% | 1.4%
50 | Cc1c(C(=O)Nc2ccccc2F)cnn1-c1ccccc1 | -6.5% | -17.7 | 6.2 | 0.7 | -9.9% | -5.1%
51 | CN(C)C(CNC(=O)CCNC(=O)c1ccc(Br)cc1)c1ccco1 (configuration not stated) | -0.6%[15.4 µM] | -9.5 | x | 0.6 | 2.1% | 0.1%
52 | Cc1ccc(C(=O)NNC(=O)CSc2nc(N)cc(N)n2)cc1 | -51.3%[inhibitor] | -16.7 | 4.6 | -0.2 | 7.4% | -3.2%
53 | CCc1noc(C)c1C(=O)Nc1nc2c(C)cccc2s1 | 7.8%[15.4 µM] | -12.2 | x | -0.3 | -13.5% | x
54 | Cc1ccc(C(=O)NC(=S)Nc2ccc3[nH]c(=O)[nH]c3c2)cc1C | 7.4% | -2.7 | 4.0 | 0.9 | -1.1% | -2.2%
55 | Cc1cc(C)cc(Nc2nc3ccccc3nc2-n2nc(C)cc2C)c1 | x | -15.4 | x | -0.3 | x | -6.6%
56 | O=S(=O)(NCC1CCCO1)c1ccccc1 (configuration not stated) | -1.9% | 1.5 | 0.1 | 0.1 | 14.2% | 1.6%
